T cruzi inh: T. cruzi replication inhibition | actives 1.4% (n = 300,000) | T. cruzi beta-gal in NIH3T3, luminescence, 90 h | inhibition, % (concentration not given with the values);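 active = mean inhibition across valid replicates above about 55%, limit read from the data; inconclusive = mean below that limit but half or more replicates reach it; inactive = mean below it, under half of replicates reach it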;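 note: signal also drops with host cell toxicity which is not excluded here; 0% = plate median of DMSO wells and 100% = zero luminescence signal; higher percent means less beta-gal luminescence so fewer parasites; stock transfer was 50 nL into about 50 µL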
Beta cell apopt: beta cell apoptosis inhibition; INS-1E cytokine-induced death, ATP luminescence, 48 h; percent of positive-control rescue, neutral wells zero; protection from apoptosis, % (test concentration not listed); actives 0.8% (n = 300,000); AID 435005;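 active = all replicates at 75% or more, or half of them and the mean; inconclusive = half reach 75% but not the mean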;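 note: 0% = cytokine-treated negative control wells and 100% = positive control rescue; higher means more ATP so stronger rescue from cytokine killing; wells of about 40 µL received 100 nL stock; the first replicate is given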
ALR inh: inhibitors of human sulfhydryl oxidase ALR; purified ALR, DTT oxidation, H2O2 HRP-luminol luminescence; inhibition, % (concentration not given with the values); actives 3.8% (n = 290,000); AID 485317;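 active = mean and each replicate at 75% or more; inconclusive = only one of the two met; inactive = neither met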;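 note: stock transfer was 7.5 nL into about 7.5 µL; 0% = neutral wells and 100% = wells with inactivated enzyme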
Target sequence (P55789 whole entry, looked up): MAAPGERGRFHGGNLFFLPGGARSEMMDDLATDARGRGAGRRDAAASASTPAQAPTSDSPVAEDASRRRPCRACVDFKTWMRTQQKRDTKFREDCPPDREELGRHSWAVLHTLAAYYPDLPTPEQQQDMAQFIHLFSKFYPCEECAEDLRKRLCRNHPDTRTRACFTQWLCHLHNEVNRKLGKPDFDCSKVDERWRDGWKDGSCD
Calb FLC: C. albicans growth modulation with fluconazole. C. albicans CaCi-2 (fluconazole-resistant clinical isolate) + fluconazole, Alamar Blue growth, 48 h. growth inhibition, % (no concentration beside the values). actives 0.57% (n = 300,000). AID 1979;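 active = most replicates above 75%; inconclusive = exactly half above 75%; inactive = most below 75%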;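 note: all wells also contain fluconazole at 8 µg/ml as a sub-toxic cotreatment; 0% = median of DMSO wells and 100% = median of geldanamycin control wells; wells of about 8 µL received 7.5 nL stock; the first replicate is given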
RanGTP-Impb inh: disruptors of Ran-importin-beta complex formation – biochemical, FRET, CFP-Ran, YFP-importin-beta, homogeneous, primary screen; actives 1.1% (n = 300,000); cell-free CFP-Ran/YFP-importin-beta FRET ratio; inhibition, % (test concentration not listed); AID 2216;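 active = most replicates above 15%; inconclusive = exactly half above 15%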;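 note: 0% = DMSO wells and 100% = Ran loaded with GDP instead of GTP; wells of about 40 µL received 100 nL stock; the first replicate is given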
MLL AF4-AF9 inh: blocks AF4 peptide binding to human AF9; P42568; AlphaScreen, biotin-AF4 peptide binding to FLAG-AF9; inhibition, % at 10 µM; actives 0.47% (n = 350,000); AID 651704;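 active = every replicate reaching a set inhibition limit, whatever the replicate mean, cut at about 25% in these data; inconclusive = mean inhibition reaches that limit but some replicates miss it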;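 note: 0% = plate neutral control median and 100% = total signal loss; the record names both 10 and 1 µM as test concentration; the first replicate is given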
Target sequence (P42568 whole entry, looked up): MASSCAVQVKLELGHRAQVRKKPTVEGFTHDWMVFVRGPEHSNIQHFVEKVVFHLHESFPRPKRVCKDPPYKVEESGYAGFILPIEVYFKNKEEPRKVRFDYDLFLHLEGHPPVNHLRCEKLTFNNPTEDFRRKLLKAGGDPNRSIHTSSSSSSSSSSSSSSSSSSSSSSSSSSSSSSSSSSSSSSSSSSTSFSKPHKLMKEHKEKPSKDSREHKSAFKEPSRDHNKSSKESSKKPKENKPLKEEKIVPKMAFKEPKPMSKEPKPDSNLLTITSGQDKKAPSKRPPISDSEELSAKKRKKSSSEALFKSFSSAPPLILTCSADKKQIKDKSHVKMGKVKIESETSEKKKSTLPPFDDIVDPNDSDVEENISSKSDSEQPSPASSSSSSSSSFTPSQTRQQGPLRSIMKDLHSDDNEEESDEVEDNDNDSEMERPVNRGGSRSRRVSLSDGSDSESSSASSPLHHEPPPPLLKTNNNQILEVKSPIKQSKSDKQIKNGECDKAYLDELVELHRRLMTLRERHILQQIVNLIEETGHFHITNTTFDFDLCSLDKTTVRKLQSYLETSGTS
FGF22 binding: shifts melting point of recombinant human FGF22; recombinant FGF22 thermal shift, SYPRO orange fluorescence; percent of sucrose octasulfate shift, DMSO zero; actives 1.5% (n = 340,000); Q9HCT0; calls only at 9.99 µM;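 active = melting point raised past a set limit in the mean and every replicate; inconclusive = no clear call; three in four hits are not shown here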
Target sequence (Q9HCT0 whole entry, looked up): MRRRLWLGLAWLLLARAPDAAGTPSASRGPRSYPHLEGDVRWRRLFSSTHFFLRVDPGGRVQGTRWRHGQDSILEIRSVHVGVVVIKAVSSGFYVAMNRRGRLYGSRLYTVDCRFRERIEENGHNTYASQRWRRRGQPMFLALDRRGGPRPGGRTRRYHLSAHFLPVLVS
rRNA inh HTS: selective bacterial rRNA inhibition in E. coli; E. coli WT GFP vs humanized-ribosome RFP mutants, fluorescence, 24 h; stronger effect = lower value; DMSO median 0, no signal -100; GFP signal change (wild-type ribosome), % (concentration not given with the values); actives 1.6% (n = 350,000); AID 720706;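 active = significant combined selectivity score with lowered wild-type GFP, culture density cut under 30%, mutant RFP and density less affected; inactive = any of these conditions unmet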; note: one replicate is shown; some compounds called inactive have numbers as strong as hits
rRNA inh HTS OD600: second read-out of rRNA inh HTS, no call of its own (marks repeat the call); OD600 change, %; measured here: OD600 growth;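 optical density of the mix in the first replicate; 0 = DMSO median and -100 = no signal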
rRNA inh HTS RFP: also measured in rRNA inh HTS; calls as there; RFP signal change, %; measured here: RFP humanized mutant strains;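 first replicate; 0 = DMSO median and -100 = no signal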
Active calls of the source: *; i = inactive; ? = inconclusive; / = not tested or not shown. Not all compounds are listed; the hit share may differ from the screen's.

SMILES	MLL AF4-AF9 inh	FGF22 binding	rRNA inh HTS	rRNA inh HTS OD600	Calb FLC	T cruzi inh	RanGTP-Impb inh	ALR inh	Beta cell apopt	rRNA inh HTS RFP
Cc1ccc(CN(Cc2cccnc2)C(=O)CN2C(=O)COc3ccccc32)o1	-3.7	i	/	/	24	55*	6.9	5	0	/
Cc1nn(-c2ccccc2)c(C)c1CN	1.3	/	7	13	-13	-23	-4.1	-1	0	-1.3
O=C(NCc1ccc(F)cc1F)Nc1cnccc1C(F)(F)F	-0.1	i	6	5	-14	-10	3.6	-5	-5	1.0
O=C(NC1Cc2ccccc2C1)c1cc(COc2ccc(F)cc2Cl)on1	-0.2	i	16	5	1	0	-1.3	-12	2	2.1
CC(NC(=O)CC1SC(N)=NC1=O)c1ccccc1 (stereo not drawn)	/	/	/	/	-19	-9	0.3	-20	-2	/
CCOC(=O)c1cn(CC(=O)Nc2cccc(Cl)c2)nn1	0.3	i	3	6	9	-23	-2.5	0	0	-0.9
CCN1C(=O)c2cccc3c(S(=O)(=O)NCc4ccccc4)ccc1c23	?	i	-15	-24	/	/	/	-8	3	-2.2
c1ccc(-c2ccccc2OCCCCN2CCCCCC2)cc1	1.3	i	-5	1	51	43	6.6	-1	11	-2.5
CCCn1nnc(NC(=O)c2ccc(Cl)cc2Cl)n1	/	/	2	12	-1	11	0.4	-6	-6	-2.7
O=C(CCc1ccc(S(=O)(=O)N2CCOCC2)cc1)OCc1nc2ccccc2s1	/	/	/	/	3	-6	4.2	-3	4	/
O=C(COC(=O)c1ccc(Cl)s1)c1cc2ccccc2o1	/	/	/	/	-1	-9	-0.3	-19	-8	/
COc1ccc(/C=C(\NC(=O)c2ccco2)C(=O)N2CCCCC2)cc1	-7.8	i	-4	-6	-2	-4	1.4	2	-5	-3.5
Cc1cc(=O)[nH]c2cc(Cl)ccc12	/	/	/	/	?	-11	-2.2	-2	/	/
CCOC(=O)CSc1nc2ccc(N3CCOCC3)cc2c(=O)n1Cc1ccc2c(c1)OCO2	/	/	/	/	?	27	-0.6	-28	1	/
COc1cc(C2CC(c3c(C)cc(C)[nH]c3=O)=NN2c2ccccc2F)cc(OC)c1OC (stereo not drawn)	-33	i	-13	-11	12	16	6.0	11	2	7.4
CCOC(=O)N1CCN(CCC(=O)Nc2cc(C)ccc2OC)CC1	-1.0	i	5	7	39	-3	5.1	-18	-9	0.8
Cc1occc1C(=O)NCCCCc1ccccc1	/	/	/	/	-3	2	0.0	98*	-7	/
C/C(=N/NC(=O)CNC(=O)c1ccccc1)c1ccc(C)cc1	-3.1	i	9	11	-8	1	1.3	-7	5	0.8
COc1cc(OC)cc(C(=O)Nc2ccc3c(c2)OCCO3)c1	2.3	i	-5	-2	-6	-6	6.0	9	17	-3.0
COC(=O)C1C(=O)C=C(Nc2ccc(F)cc2)CC1c1ccc(OC)cc1 (stereo not drawn)	/	/	/	/	12	-3	9.1	-14	4	/
O=C1CSC(c2ccc(F)cc2)N1c1nc2ccccc2s1 (stereo not drawn)	/	/	/	/	-27	-4	2.2	-7	-5	/
CCOc1ccc(C(=O)CCC(=O)NN2C(=O)NC3(CCCCC3)C2=O)cc1	-1.1	i	3	5	/	/	/	-4	-2	2.4
CC(OC(=O)C12CCC(=O)N1c1ccccc1S2)C(=O)Nc1cccc(Cl)c1 (stereo not drawn)	-0.4	i	/	/	/	/	/	-1	-1	/
COc1ccc(NC(=O)c2ccc(CN3CCN(c4ccccc4)CC3)cc2)cc1	/	/	/	/	-5	22	-2.3	-3	4	/
CCCCNc1nc(=S)[nH]c2cc(OC)c(OC)cc12	/	/	/	/	3	-4	2.2	-6	6	/
COc1cccc2cc(C(=O)N3CCN(c4ncccn4)CC3)c(=O)oc12	/	/	/	/	20	10	-1.4	-7	-4	/
COc1cccc(CNC(=O)C(=O)NCCC2CCCCN2S(=O)(=O)c2ccccc2)c1 (stereo not drawn)	-2.3	i	1	2	12	5	1.4	-1	-1	0.1
CCc1ccc(NC(=S)NCC2CCCN2CC)cc1 (stereo not drawn)	0.3	i	25	5	3	-11	-0.1	-5	-1	0.4
CC(C)(C)N1CC(c2nc3ccccc3n2CCOc2ccccc2)CC1=O (stereo not drawn)	/	/	/	/	-13	12	0.0	-6	-2	/
Oc1ccc(/C=N/Nc2nccnc2Cl)c(O)c1	/	/	/	/	42	59*	3.0	59	75*	/

SMILES	MLL AF4-AF9 inh	FGF22 binding	rRNA inh HTS	rRNA inh HTS OD600	Calb FLC	T cruzi inh	RanGTP-Impb inh	ALR inh	Beta cell apopt	rRNA inh HTS RFP
CCn1cc(C(=O)NCC(C)C)c(=O)c2cc(F)c(N3CCN(C)CC3)cc21	0.0	i	-45	-70	-3	15	-1.1	-3	-1	-11
CCOc1ccc(-c2cc(C(=O)NN)[nH]n2)cc1	-1.8	i	-5	14	-10	-25	1.3	99*	-2	-5.1
CCOC(=O)C1(CC)NC(c2cccc(F)c2)C2C(=O)N(CC)C(=O)C21 (stereo not drawn)	/	/	/	/	2	-4	2.7	/	-10	/
Cc1ccc(S(=O)(=O)CCC(=O)OC(C)C(=O)N2CCc3ccccc32)cc1 (stereo not drawn)	0.5	i	18	20	3	3	7.8	-4	/	-5.4
COc1cc(C)c(CN2CCCCC2CO)cc1C (stereo not drawn)	/	/	/	/	27	-7	3.6	-17	2	/
COC(=O)C(C(=O)OC)c1ccc(NC(=O)c2cccc(Cl)c2)cc1	-3.5	i	20	11	-1	-16	5.5	-2	-2	0.5
COc1ccc(Cl)cc1C(=O)Nc1ccc2c(c1)OCCO2	1.7	i	3	-2	0	5	?	-2	/	-2.0
COc1ccccc1OCCSc1ncnc2nc[nH]c12	/	/	/	/	-4	-28	-0.9	-4	-4	/
O=C1CC(c2ccccc2)CC(O)=C1C=Nc1ccc(O)cc1 (stereo not drawn)	1.1	i	8	5	15	-32	?	54	-6	2.1
COc1ccc(CC(=O)NNc2ncnc3c2cnn3C)cc1OC	2.1	i	14	11	2	-17	2.9	70	0	-4.9
O=C(NC1CCCCC1)N(Cc1cc2cc3c(cc2[nH]c1=O)OCCO3)CC1CCCO1 (stereo not drawn)	/	/	/	/	-18	20	-1.8	18	-7	/
COc1ccc(C2NS(=O)(=O)OCC2C)cc1 (stereo not drawn)	/	/	/	/	-2	-3	1.9	-18	-4	/
O=C(Nc1ccccc1-c1ccccc1)c1cccc([N+](=O)[O-])c1	/	/	/	/	-14	5	-2.1	/	-1	/
OCC[C@H]1C[C@@H](O)[C@H](O)[C@@]2(OCc3ccccc32)O1	-1.9	i	10	11	/	/	/	/	1	0.5
c1ccc2c(-c3nnc4n3CCCCC4)cc(-c3ccncc3)nc2c1	/	/	/	/	-10	11	4.2	1	/	/
CCCCc1ccc(NC(=O)c2ccc(N(C)S(C)(=O)=O)cc2)cc1	3.9	i	11	8	3	10	-2.5	/	2	-2.6
CN1CCN(C(=O)c2cc(-c3ccccc3)on2)CC1	/	/	/	/	9	1	-1.3	20	1	/
COC(=O)CSc1nc2cc(C)cc(C)c2cc1C#N	/	/	/	/	21	-6	?	3	-5	/
CCCC(=O)c1c(C)c2ccccc2n1C	/	/	/	/	-5	-12	2.5	2	-8	/
O=C(NCc1ccc(Cl)cc1)c1nccnc1CO	-1.5	i	-1	4	-1	1	-3.5	-17	1	0.1
COc1ccc(S(=O)(=O)Nc2nc(C(F)(F)F)cs2)cc1	/	/	/	/	-8	10	-0.1	7	2	/
CCCC(C(=O)NC(C)(C)C)N(CCN1CCOCC1)C(=O)CNS(=O)(=O)c1ccccc1 (stereo not drawn)	-1.2	/	1	6	3	-1	-3.3	0	0	0.8
O=C(c1ccc(S(=O)(=O)c2ccccc2Cl)c([N+](=O)[O-])c1)N1CCN(Cc2ccccc2)CC1	8.2	i	0	3	-3	-6	-0.3	-7	0	7.2
CN(c1ccccc1C(=O)Nc1cccc(Br)c1)S(=O)(=O)c1ccccc1	-0.2	i	-25	-33	-5	14	3.6	0	0	-15
Cc1cc(C)c(C#N)c(Sc2ccc(N)cc2)n1	/	/	/	/	-71	4	2.1	13	-2	/
COc1ccc(CN(C)S(=O)(=O)c2c(C)noc2C)cc1OC	-1.6	i	/	/	/	/	/	-3	-9	/
COc1n[nH]c2nncnc12	/	/	/	/	-14	-11	1.0	-44	-3	/
O=C(O)c1ccc(CNC(=O)c2ccc3c(c2)C(=O)N(Cc2cccnc2)C3=O)cc1	-0.4	i	9	-1	-12	/	/	-5	-4	2.8
Cc1ccc(Nc2c3c(nc4ncnn24)CCC3)cc1	/	/	2	1	12	-19	2.8	-5	6	-0.5
O=C(Nc1cccc(Cl)c1)Nc1cccc(C(=O)O)c1	1.5	/	-5	-1	3	-8	-1.9	-14	-7	0.4

SMILES	MLL AF4-AF9 inh	FGF22 binding	rRNA inh HTS	rRNA inh HTS OD600	Calb FLC	T cruzi inh	RanGTP-Impb inh	ALR inh	Beta cell apopt	rRNA inh HTS RFP
Cc1ccc(-c2ccc(/C=C3/NC(=O)NC3=O)o2)cc1[N+](=O)[O-]	-2.3	i	33	10	21	2	6.1	/	/	2.7
CSCC[C@H](NC(=O)c1cccs1)c1nnc2ccccn12	-0.9	i	4	12	-6	-8	8.8	-2	-3	2.8
NC(=O)Nc1n[nH]c(-c2ccccc2)n1	-0.7	i	6	16	2	-5	-1.2	-9	-1	0.1
N#C/C(=C/c1ccc(N2CCOCC2)o1)C(=O)NC1CCCCC1	3.0	i	36	21	47	12	3.3	63	7	18
Cn1c(=O)c2c(nc(CN3CCN(C(c4ccccc4)c4ccccc4)CC3)n2CCCO)n(C)c1=O	3.3	i	3	-6	-2	8	-1.2	-19	4	7.3
CC(C)NS(=O)(=O)c1ccc(NC(=O)Cc2cccs2)cc1	/	/	/	/	-9	-13	-1.6	8	1	/
COc1ccc(CCNC(=O)c2ccc(CN3CCC(Cc4ccccc4)CC3)cc2)cc1OC	7.2	i	-14	-7	-1	35	4.9	/	-1	-5.6
COc1ccccc1NC(=O)CSc1ncn[nH]1	/	/	/	/	2	4	-2.8	0	-14	/
Cc1ccc(OCCCCn2ccnc2)c([N+](=O)[O-])c1	2.1	i	7	-1	-3	23	-2.1	2	-3	-2.4
Cc1cccc(C2CC(c3ccc(Br)cc3)Nc3nc(N)nn32)c1 (stereo not drawn)	6.1	i	-28	-60	12	27	-0.8	-10	6	5.7
CCCn1nc(C(=O)N2CC(=O)Nc3ccccc32)c2ccccc2c1=O	/	/	/	/	5	-2	5.6	/	6	/
CCOC(=O)c1sc(N2C(=O)C(O)=C(C(=O)c3ccco3)C2c2cccc(Cl)c2)nc1C (stereo not drawn)	-13	i	-26	-50	71	-7	-0.1	/	2	-0.4
COc1cccc(OC)c1C(=O)Nc1cc(C)nn1-c1nc2ccccc2[nH]1	2.4	i	13	9	1	43	-0.1	18	31	3.3
COc1cccc(N2CC(O)=C(c3nc4ccccc4s3)C2=N)c1	-2.4	i	12	26	-13	-31	-2.5	49	7	4.2
CCOC(=O)[C@@H]1CCNC[C@@H]1c1ccccc1	/	/	/	/	-4	-2	-3.0	-21	-2	/
Cc1ccc(S(=O)(=O)N2CCC[C@H]2C(=O)OC(C)C(=O)Nc2ncc(Cl)cc2Cl)cc1 (stereo partly drawn)	/	/	/	/	7	-17	1.2	-4	/	/

Compound activity from PubChem BioAssay.
